Screening data from PubChem BioAssay.
Bst PK mod: Pyruvate Kinase; partly purified Bacillus stearothermophilus pyruvate kinase, luminescence ATP production; ribose 5-phosphate activator present at AC10; Potency, µM; hit rate 1.2% among 51,000; in the data active means potency below about 11 µM; inconclusive means mostly about 12 µM to 25 µM; inactive means weaker than that;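 the screen sought inhibitors and activators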;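 also: potency is read from the fitted curve at half-maximal effect; scaled between full activation by ribose 5 phosphate and full inhibition by luteolin; about four in five hits inhibit and the cells do not say which; series up to 57 µM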
YjeE inh: qHTS Assay for Inhibitors of YjeE. tRNA threonylcarbamoyladenosine biosynthesis protein TsaE (Escherichia coli (strain …. purified YjeE, fluorescence polarisation of a bound ADP probe. Potency, µM. hit rate 0.05% among 71,000; active = well fitted falling curve; inconclusive = weaker or top-dose-only fall, or a rising curve; inactive = flat or poorly fitted curve;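 also: top concentration of the series not given in the record; excess ADP was the control for the full effect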
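Purified YjeE (10 uM) with BODIPY Texas Red-labeled ADP probe (2 uM); compounds pin-transferred, 15 min at room temperature. Binding inhibition read as decreased fluorescence polarization; ADP titration as control.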
* hit, by the source's call; i = inactive; u = inconclusive; x = no result given. Only part of the results is shown; rates above refer to the full screens.

SMILES	Bst PK mod	YjeE inh
CC(=O)NCC(=O)OCN1C(=O)c2ccccc2C1=O	>25.6	x
Cc1nn(CC(=O)Nc2ccc3c(c2)nc(CN2CCCCC2)n3C)c(=O)c2ccccc12	>57	i
COC(=O)C1=C(N)Oc2cc(C)n(Cc3cccnc3)c(=O)c2C1c1cc(OC)ccc1OC (centres undefined)	>57	i
CCN=C1SC(CC(=O)NC(N)=O)C(=O)N1CC (centres undefined)	>57	i
Cc1ccc(S(=O)(=O)Nc2ccc(C(=O)Nc3cc(C)on3)cc2)cc1	>57	i
Cc1cc(C)n(-c2ccc(Cl)c(C(=O)O)n2)n1	>57	i
N#Cc1c(N2CCCCC2)nc(N2CCCCC2)c2c1CCN(Cc1ccccc1)C2	>11.4	x
O=c1c2ccccc2nnn1CSc1nnc(-c2cccc(S(=O)(=O)N3CCCCC3)c2)o1	>57	i
CC(C)N(C(=O)N1CCC(c2nc(-c3ccncc3)no2)CC1)C(C)C	>57	i
CCC(=O)N[C@@H]1CCc2cccc(OC)c2C1	x	i
O=C(O)c1ccc2c(c1C(=O)O)C(=O)OC2(c1ccc(O)cc1)c1ccc(O)cc1	x	i
Cn1nc(OCCOc2ccccc2)ccc1=O	x	i
CCc1ccc(NC(=O)CC2NCCNC2=O)cc1 (centres undefined)	>57	i
CN1/C(=C/C=N/n2cnnc2)C(C)(C)c2ccccc21	>57	i
COc1cc(-c2c(C#N)c(N)nc3c2c(C)nn3-c2ccc(C)c(C)c2)cc(OC)c1OC	>57	i
CCc1[nH]c(=O)c(C#N)c2c1CCCC2	>25.6	x
COc1cc(NC(=O)c2ccc(Cl)cc2)c(OC)cc1NC(=O)CN1CCOCC1	i	i
COc1ccc(CN(Cc2ccccn2)S(=O)(=O)c2ccc(-n3cnnn3)c(OC)c2)cc1	>57	i
CCSc1nc2c(c(=O)n(C)c(=O)n2C)n1Cc1ccc(Cl)cc1	>57	i
CNc1nc(C)nc(-c2ccccc2O)n1	x	i
CCOC(=O)C1=C(Cn2cnc3ccccc32)NC(=O)NC1c1cc(C)ccc1C (centres undefined)	>57	i
O=C(Nc1ccc2c(c1)CCC2)c1cnn2c1NC(c1ccco1)CC2C(F)(F)F (centres undefined)	>57	i
CC1CCC(NC(=O)c2cc3c(s2)CS(=O)(=O)C3)CC1 (centres undefined)	>57	i
N#Cc1ccc(CSc2nnc(-c3cccc(S(=O)(=O)N4CCCCC4)c3)o2)cc1	>57	i
O=C(CSc1ncnc2c1oc1ccccc12)Nc1cccc(Cl)c1	>57	i
SMILES	Bst PK mod	YjeE inh
CCCCNC(=O)C(C#N)c1nc2ccccc2nc1N1CCN(c2ccccc2F)CC1 (centres undefined)	>25.6	x
COc1ccc(-n2c(=O)c(CCc3ccccc3)nc3cnc(OC)nc32)cc1	x	i
Cc1cc(C)nc(Sc2ccc3nnc(C(F)(F)C(F)(F)C(F)(F)F)n3n2)n1	>57	i
Cc1onc(-c2ccccc2)c1C(=O)N1CCc2ccccc21	x	i
O=C(Nc1ccc(N2CCOCC2)c(Cl)c1)c1cccnc1	x	i
N#Cc1c(N)c(C(=O)c2ccc(Cl)cc2)n2c1CCC2	>57	i
O=C(c1ccccc1)c1ccccc1C(=O)N1CCOCC1	>57	i
CCc1ccc(-c2nnn(Cc3nn[nH]n3)n2)cc1	>57	i
Cc1ccc(S(=O)(=O)N2CCC(C(=O)O)CC2)cc1C(=O)O	>57	i
CCOC(=O)C(C)Sc1nc2ccccc2c(=O)n1CC (centres undefined)	>57	i
CCc1c(C)nc(SCC(=O)CC(=O)OC(C)C)c(C#N)c1C	>57	i
C=CCn1c(-c2ccc(OC)c(OC)c2)n[nH]c1=S	>25.6	x
COc1ccc(CCN(C)CCc2ccc(OC)c(OC)c2)cc1OC	x	i
CCOC(=O)CSc1nc(C2CC2)nc2ccccc12	>57	i
Cc1[nH]c2ccccc2c1C(=O)CN1CCN(C2CCCCC2)CC1	>57	i
COC(=O)c1ccccc1NC(=O)c1cc2n(n1)C(C(F)F)CC(C(F)F)N2 (centres undefined)	>57	i
CCOC(=O)c1cc2c(=O)n3cccc(C)c3nc2n(Cc2cccnc2)c1=N	>25.6	x
O=C(N1CCOCC1)C12CC3CC(C1)CC(C(=O)N1CCOCC1)(C3)C2	>57	i
Nc1nc(-c2ccc3ccccc3c2)cc(-c2cc(-c3ccc4ccccc4c3)nc(N)n2)n1	x	i
CCOc1cccc2c1OC1(C)CC2NC(=O)N1c1cccc(Cl)c1 (centres undefined)	>57	i
COc1ccc(Cn2c(=O)[nH]c3cc(C(=O)NCCCN4CCCC4)ccc3c2=O)cc1	>57	i
COc1ccc(-n2ncc3c(N4CCCc5ccccc54)ncnc32)cc1	u	i
CN(C)Cc1cc(C(C)(C)C)c(O)c(C(C)(C)C)c1	x	i
CCn1c(=N)n(CC(O)COc2cccc(C)c2)c2ccccc21 (centres undefined)	>57	i
Cc1cc2nc3c(c(=O)n2[nH]1)CCCC3	x	i

Some of the entries so far, in markdown:
| canonical_smiles | Bst PK mod | YjeE inh |
| --- | --- | --- |
| COc1ccc(-n2c(=O)c(CCc3ccccc3)nc3cnc(OC)nc32)cc1 | x | i |
| CCc1ccc(-c2nnn(Cc3nn[nH]n3)n2)cc1 | >57 | i |
| O=C(N1CCOCC1)C12CC3CC(C1)CC(C(=O)N1CCOCC1)(C3)C2 | >57 | i |
| COC(=O)c1ccccc1NC(=O)c1cc2n(n1)C(C(F)F)CC(C(F)F)N2 (centres undefined) | >57 | i |
| COc1ccc(CCN(C)CCc2ccc(OC)c(OC)c2)cc1OC | x | i |
| COc1ccc(Cn2c(=O)[nH]c3cc(C(=O)NCCCN4CCCC4)ccc3c2=O)cc1 | >57 | i |

Looked up one by one from above (3):
SMILES	Bst PK mod	YjeE inh
COC(=O)c1ccccc1NC(=O)c1cc2n(n1)C(C(F)F)CC(C(F)F)N2 (centres undefined)	>57	i
CCn1c(=N)n(CC(O)COc2cccc(C)c2)c2ccccc21 (centres undefined)	>57	i
CCOC(=O)C(C)Sc1nc2ccccc2c(=O)n1CC (centres undefined)	>57	i

Going on with the list:
SMILES	Bst PK mod	YjeE inh
COc1ccc(NC(=O)c2ccc(C(=O)c3ccccc3)o2)cc1	>57	i
COc1ccc(OC)c(CNC(=O)Cc2c(C(=O)O)[nH]c3ccccc23)c1	>57	i
CCCOc1ccc(C(=O)N2CCCc3ccccc32)cc1	>57	i
CCOC(=O)Nc1ccc2c(c1)nc(CN1CCN(C(C)=O)CC1)n2C	>57	i
CCN(CC)c1nc(-c2nn[nH]n2)nc(N(CC)CC)n1	>57	i
CC(=O)Nc1ccccc1N(C)S(=O)(=O)c1ccc(C)cc1	>57	i
O=c1cnc2cnc(Oc3ccccc3)nc2n1C[C@H]1CCCO1	x	i
O=C(O)c1cc(-c2ccccc2)c(N2CCOCC2)s1	>57	i
Nc1nc2c(C(=O)NCc3cccs3)nnn2c2cccc(Cl)c12	x	i
O=S(=O)(c1ccccc1S(=O)(=O)N1CCCCC1)N1CCCCC1	>57	i
CCCn1c2c(c(O)c(C(=O)Nc3ccccc3)c1=O)CCCC2	>57	i
Cc1nn(-c2ccccc2)c(=S)n1-c1ccccc1	>57	i
Nc1nc(N)c(-c2cccc(C(F)(F)F)c2)c(Cc2cccc(C(F)(F)F)c2)n1	x	i
Cc1cnc(C)c(N2CCC(C(=O)NC(C)c3cccs3)CC2)n1 (centres undefined)	>57	i
COCCNC(=O)CSCc1c(F)cccc1Cl	>57	i
FC(F)(F)C12CC(c3ccccc3)=NCCN1CCN2 (centres undefined)	>57	i
CCC1CCCCN1C(=O)CSc1nnc(-c2ccc(OC)cc2)o1 (centres undefined)	x	i
CC(=O)c1ccc(Oc2ncnc3sccc23)c(CN2CCOCC2)c1	>57	i
COCCNS(=O)(=O)c1ccc2c(c1)oc(=O)c1cc(S(=O)(=O)NCCOC)ccc12	>57	i
Fc1ccc(F)c(CN2CCN(c3ncccn3)CC2)c1	>57	i
Cc1ccc(S(=O)(=O)N(C)CC(=O)N2CCN(c3ccccn3)CC2)cc1	>57	i
COc1ccc2oc(=O)cc(C)c2c1	>57	i
O=C(O)C1C2C=CC3(CN(c4cccc(C(F)(F)F)c4)C(=O)C13)O2 (centres undefined)	>57	i
COc1ccc(CN(C)CCc2ccccn2)c(OC)c1OC	>25.6	x
CC(=O)c1cccc(-n2nnnc2SCC(=O)N2CCCC2)c1	>57	i

Sorted by count of non-hydrogen atoms (smallest number first): part of the list above.
SMILES	Bst PK mod	YjeE inh
Fc1ccc(F)c(CN2CCN(c3ncccn3)CC2)c1	>57	i
O=S(=O)(c1ccccc1S(=O)(=O)N1CCCCC1)N1CCCCC1	>57	i
CCC1CCCCN1C(=O)CSc1nnc(-c2ccc(OC)cc2)o1 (centres undefined)	x	i

(listing goes on)
SMILES	Bst PK mod	YjeE inh
Cc1c(OCc2ccc(C(=O)O)o2)ccc2c3c(c(=O)oc12)CCC3	x	i
O=C(c1ccccc1NS(=O)(=O)c1cccs1)N1CCOCC1	>57	i
CCCC(C)C(=O)Nc1ccc2c(c1)OCCO2 (centres undefined)	>57	i
Cc1ccc(S(=O)(=O)N(C)CC(=O)NC2CC(C)(C)NC(C)(C)C2)cc1	>57	i
COc1ccc(NC(=O)N2CC3(CCN(S(=O)(=O)c4ccccc4)CC3)C2)cc1	x	i
CS(=O)(=O)c1ccc2nc(NC3(C(F)(F)F)N=C4SCCN4C3=O)sc2c1 (centres undefined)	>57	i
COc1ccc(C(=O)N2CCN(S(=O)(=O)c3ccc(C)cc3C)CC2)cc1OC	x	i
Cn1c(NCCCN2CCOCC2)nc2c1c(=O)n(Cc1ccc(Cl)cc1)c(=O)n2C	>57	i
CCC(=O)N1CCc2cc(Br)cc(S(=O)(=O)N3CCCCCC3)c21	>57	i
FC(F)(F)c1cccc(-c2ccc(-c3csnn3)o2)c1	x	i
COc1ccc2c(c1)C(C)CC(C)(C)N2C(=O)CSc1ncn[nH]1 (centres undefined)	>57	i
CCC(C)NC(=O)C1CCN(S(=O)(=O)CC)CC1 (centres undefined)	>57	i
CCCOC(=O)CN1C(=O)c2ccccc2C1=O	>57	i
CCSc1nnc(CNc2ccc(F)cc2)n1CC1CCCO1 (centres undefined)	>57	i
N#CC(C(=O)OC1CCCCC1)c1nc2ccccc2nc1N1CCCCC1 (centres undefined)	>57	i
O=C(CSc1ncnc2c1oc1ccccc12)Nc1cccc(F)c1	>57	i
CCCn1c(SCC(N)=O)nc2c(c1=O)C1(CCCC1)Cc1ccccc1-2	>25.6	x
CCCc1cc2c(n1Cc1cc(F)cc(F)c1)C(C)C1CN(C(=O)c3ccccc3)C(C)(C(=O)OC)C21 (centres undefined)	x	i
Oc1ccccc1-c1cc(-c2ccccc2Cl)[nH]n1	u	i
C[C@]12CC[C@H]3c4ccc(O)cc4CC[C@@H]3[C@H]1C/C(=N/O)[C@H]2O	x	i
c1coc(C2Nc3cccc4cccc(c34)N2)c1	x	i
CCC(=O)Nc1nc(C)c(Oc2ccccc2)c(=O)[nH]1	>25.6	x
CCCCn1c(NC(C)CC)nc2c1c(=O)[nH]c(=O)n2C (centres undefined)	>57	i
CC1(C)CC(=O)C2=C(C1)N(Cc1cccnc1)C(=O)C2(NC(=O)C1CC1)C(F)(F)F (centres undefined)	>57	i
Nc1nc(N2CCOCC2)nc2ccccc12	x	i
SMILES	Bst PK mod	YjeE inh
CC(C)(C)OC(=O)N1CCOCCOCCN(C(=O)OC(C)(C)C)CCOCCOCC1	>57	i
CCOc1ccc(C(=O)Nc2ccc3c(c2)OCCO3)cc1OC	>57	i
COc1ccc(C(=O)N2CCN=C2SCc2cccnc2)c(OC)c1	x	i
NCCC[C@@H](CC(=O)N[C@@H]1CCCC[C@H]1C(=O)N[C@H](CC(=O)N[C@@H](CCC(=O)O)CC(=O)O)Cc1c[nH]c2ccccc12)NC(=O)C[C@H](CO)NC(=O)[C@@H]1CCCC[C@H]1N	x	i
COC(=O)c1ccc(NC(=O)C2C3CCC(C3)C2C(=O)O)cc1 (centres undefined)	x	i
COc1ccc(NC(=O)CCC2CCCC2)cc1OC	>57	i
O=C(NCc1ccco1)c1ccccc1NS(=O)(=O)c1ccc2c(c1)OCCO2	>57	i
N#Cc1ccc(Oc2cccc(C(=O)O)c2)cc1C#N	x	i
Cc1ccc(N(C)C)cc1	x	i
COc1ccc(F)cc1CN1CCN(C(=O)CCC(=O)Nc2nnc(C(C)C)s2)CC1	>57	i
c1ccc(Cn2ncc3c2ncn2c(-c4ccncc4)nnc32)cc1	>57	i
CCCCn1c(=N)n(CC(O)COc2cccc(C)c2)c2ccccc21 (centres undefined)	>57	i
O=C(c1cc(F)c(F)cc1Cl)N1CCCCC1	x	i
Cc1occc1C(=O)NCCCc1ccccc1	x	i
Cn1c(=O)n(Cc2ccccc2)c(=O)c2c1nc1n2CCS1	>57	i
O=C(c1ccccc1-c1ccccc1)N1CCN(c2ccccn2)CC1	>57	i
COc1cc(C(=O)NCCc2cn3ccc(C)cc3n2)cc(OC)c1OC	x	i
CC[N+]1(C)[C@@H]2CC[C@H]1CC(OC(=O)[C@H]1CC[C@@](C(=O)OC3C[C@H]4CC[C@@H](C3)[N+]4(C)CC)(c3ccccc3)c3ccccc31)C2 (some centres undefined)	x	i
Cc1csc(SCC(=O)Nc2cc(C(C)(C)C)nn2-c2ccccc2)n1	>57	i
O=C(c1ccc(S(=O)(=O)N2CCOCC2)cc1)N(c1ccccc1)C1C=CS(=O)(=O)C1 (centres undefined)	>57	i
CC1(C)Cc2c(sc3c2c(=N)n(Cc2ccco2)c(=O)n3CC(=O)Nc2cccc(Cl)c2)CO1	>57	i
O=C(NC1CCC(C(=O)O)CC1)OCc1ccccc1 (centres undefined)	>57	i
